Screens: PubChem, several laboratories
Arbovirus anti = antivirals against arbovirus infection | hit rate 0.37% among 200,000 | arbovirus infection cell-based antiviral screen | AID 1251 | inhibition, % at 10 µM;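 active = inhibition from about 30%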;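 also: bluetongue infection of BSR cells; cell survival read as ATP light after 72 h; 0% = infected wells without compound and 100% = uninfected wells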
Mtb growth = M. tuberculosis H37Rv growth inhibitors, H37Rv strain (AID 1626). one-dose inhibition, % at 10 µM; IC50 in µM for titrated hits. hit rate 0.95% among 220,000. M. tuberculosis H37Rv growth inhibition; higher % means a stronger effect;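 active = confirmed in a dose series; inconclusive = inhibition above 80% but not taken into the dose series; inactive = below 80% or under 30% at every dose of the series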;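 also: bacteria incubated seven days before Alamar blue readout; 0% = bacteria only wells and 100% = bacteria with antibiotic wells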
Mtb betalactam = beta-lactam sensitization of Mtb H37Rv | hit rate 0.27% among 330,000 | M. tuberculosis H37Rv growth with meropenem, percent inhibition; hits of this screen are not shown here | inhibition, % at 25 µM;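 active = about 74% or more and at least 40 points above the plate without the antibiotic, then above 30% in a dose series; inconclusive = first-round hits that could not be retested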;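 also: growth measured after seven days incubation then overnight dye step; 0% = bacteria only wells and 100% = bacteria with antibiotic; twin plates without the antibiotic show which effects depend on it; some results filed as inactive read as strong as hits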
RecA intein inh = blocks M. tuberculosis RecA intein splicing. P9WHJ3. cell-free RecA intein splicing, fluorescence. inhibition, %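 (about 9 µM by stock and volumes)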. hit rate 0.75% among 290,000. AID 2221; in the data active = inhibition above about 30%; inconclusive = no clear call, values can overlap the other calls;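 also: 0% = vehicle wells and 100% = reference inhibitor control wells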
Target sequence (P9WHJ3 whole entry, looked up): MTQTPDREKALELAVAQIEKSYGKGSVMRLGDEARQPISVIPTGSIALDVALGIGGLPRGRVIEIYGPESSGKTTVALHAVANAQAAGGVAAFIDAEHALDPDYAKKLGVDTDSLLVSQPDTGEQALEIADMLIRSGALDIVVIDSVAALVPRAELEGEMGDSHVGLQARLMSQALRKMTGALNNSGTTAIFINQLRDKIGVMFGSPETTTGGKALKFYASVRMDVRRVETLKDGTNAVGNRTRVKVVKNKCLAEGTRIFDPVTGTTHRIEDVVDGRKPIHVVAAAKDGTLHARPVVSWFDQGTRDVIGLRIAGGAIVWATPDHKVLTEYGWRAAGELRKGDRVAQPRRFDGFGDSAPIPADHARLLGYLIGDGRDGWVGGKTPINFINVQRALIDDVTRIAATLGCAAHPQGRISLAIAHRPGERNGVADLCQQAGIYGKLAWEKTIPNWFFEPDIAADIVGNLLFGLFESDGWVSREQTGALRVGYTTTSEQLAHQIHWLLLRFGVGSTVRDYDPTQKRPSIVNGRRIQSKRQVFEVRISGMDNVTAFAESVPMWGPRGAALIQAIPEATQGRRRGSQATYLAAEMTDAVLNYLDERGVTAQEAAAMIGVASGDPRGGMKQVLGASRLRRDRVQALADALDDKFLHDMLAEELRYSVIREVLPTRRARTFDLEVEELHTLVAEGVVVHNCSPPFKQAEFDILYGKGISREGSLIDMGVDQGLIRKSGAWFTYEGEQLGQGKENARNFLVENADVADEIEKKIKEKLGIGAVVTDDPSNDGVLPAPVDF
YopH PTP inh = inhibitors of Yersinia enterocolitica YopH tyrosine phosphatase. fluorescence Ex485/Em525. inhibition, %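 (about 10 µM by stock and volumes)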. hit rate 0.16% among 140,000. AID 898;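 active = inhibition of 50% or more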;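 also: controls were vehicle for no effect and minimum signal wells for full effect; inactives centre near -20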
Arbovirus anti repeat = second read-out of Arbovirus anti, no call of its own (marks repeat the call); inhibition, %; measured here: 10K subset replicate screen; many hits read low in the repeat;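 first of two repeat runs on a subset; 0% = infected and 100% = uninfected wells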
* marks the source's active call; other numbers are inactive results; u = inconclusive; x = not tested or not shown. Not all compounds are listed; rates above refer to the full screens.

SMILES	Arbovirus anti	Mtb growth	Mtb betalactam	RecA intein inh	YopH PTP inh	others
COC(=O)c1ccccc1N=Cc1c(O)[nH]c(=O)[nH]c1=O	x	x	1.5	1.0	x
O=C1N/C(=C/c2ccsc2)C(=O)N1c1ccccc1	-13.3	3.1%	-5.6	0.8	x
CC(=O)c1cccc(NC(=S)NC(=O)Cc2ccccc2)c1	1.9	4.7%	4.6	x	x
CC1CCCC(C)N1CCCNC(=O)C(=O)Nc1ccc2nc3n(c(=O)c2c1)CCCCC3 (stereo not given)	x	x	1.8	-3.4	x
CCC[C@@H]1C[C@@]1(CCC)[C@@H](NP(=O)(c1ccccc1)c1ccccc1)c1ccc(C(=O)OC)cc1	-37.1	20.2%	8.3	3.0	4.2
CCCC1C(=O)Nc2ccccc2N1C(=O)c1ccc(C(C)(C)C)cc1 (stereo not given)	x	x	-1.6	8.4	x
O=C(CN1C(=O)CSC1=O)Nc1ccc(F)c(F)c1F	-2.6	-11.6%	-5.8	1.8	-32.7
Cc1ccc2c(c1)C(O)(c1c(C)[nH]c3ccccc13)C(=O)N2 (stereo not given)	-22.7	8.2%	-4.0	-1.7	33.5
O=C1N(CN2CCOCC2)c2ccccc2C1(O)c1c[nH]c2ccccc12 (stereo not given)	12.5	-3.0%	0.4	-0.1	-26.1
Cc1ccccc1Cn1nnc(-c2ccc3c(c2)OCO3)n1	-31.6	1.7%	6.6	-1.8	-20.5
CSc1ccc(C2c3[nH]c4ccccc4c3CCN2C(=O)c2ccnn2C)cc1 (stereo not given)	-14.7	10.1%	-6.5	x	x
CSc1cc(-c2ccc(Cl)cc2)[nH]c(=O)c1C#N	-10.0	-10.4%	-1.9	-0.5	x
O=C(NCCc1c[nH]c2ccccc12)C(=O)NCC1OCCCN1S(=O)(=O)c1cc(F)ccc1F (stereo not given)	-11.7	3.5%	3.2	x	x
CCCOC1OC(=O)c2c1ccc(OC)c2OC (stereo not given)	-0.5	1.0%	-0.4	-0.7	-32.2
COc1cc2ccccc2cc1C(=O)N1CCN(C)CC1	16.4	-0.7%	3.9	-0.6	-37.9

Reprinted from the results shown, 6 compounds:
SMILES	Arbovirus anti	Mtb growth	Mtb betalactam	RecA intein inh	YopH PTP inh	others
COC(=O)c1ccccc1N=Cc1c(O)[nH]c(=O)[nH]c1=O	x	x	1.5	1.0	x
O=C1N/C(=C/c2ccsc2)C(=O)N1c1ccccc1	-13.3	3.1%	-5.6	0.8	x
CC(=O)c1cccc(NC(=S)NC(=O)Cc2ccccc2)c1	1.9	4.7%	4.6	x	x
CC1CCCC(C)N1CCCNC(=O)C(=O)Nc1ccc2nc3n(c(=O)c2c1)CCCCC3 (stereo not given)	x	x	1.8	-3.4	x
CCC[C@@H]1C[C@@]1(CCC)[C@@H](NP(=O)(c1ccccc1)c1ccccc1)c1ccc(C(=O)OC)cc1	-37.1	20.2%	8.3	3.0	4.2
CCCC1C(=O)Nc2ccccc2N1C(=O)c1ccc(C(C)(C)C)cc1 (stereo not given)	x	x	-1.6	8.4	x

The main list resumes with the two entries that preceded the break.
SMILES	Arbovirus anti	Mtb growth	Mtb betalactam	RecA intein inh	YopH PTP inh	others
CCCOC1OC(=O)c2c1ccc(OC)c2OC (stereo not given)	-0.5	1.0%	-0.4	-0.7	-32.2
COc1cc2ccccc2cc1C(=O)N1CCN(C)CC1	16.4	-0.7%	3.9	-0.6	-37.9
CC1CCCCN1C(=O)C(Cc1ccccc1)N1C(=O)C2CCCCC2C1=O (stereo not given)	3.5	1.9%	9.1	0.6	-10.0
CCC(=O)N(Cc1ccco1)C1CC(=O)N(c2ccccc2)C1=O (stereo not given)	2.4	-5.3%	0.4	-1.2	-20.3
Cc1ccc2c(c1)COc1c3ccc(C(=O)N4CCOCC4)cc3nn1-2	x	-11.4%	7.0	0.9	x
COc1ccc(C(=O)N2CCC(C(=O)N3CCN(c4ccccc4)CC3)CC2)cc1	x	x	0.2	0.1	x
CC(CN1CCCCC1)OC(=O)c1ccccc1F (stereo not given)	x	x	-2.4	-4.6	x
Cc1ccc2cc(CCNC(=O)CCCc3ccccc3)c(=O)[nH]c2c1C	x	x	-11.7	-9.3	x
NC(=O)[C@@H]1CCCNc2c(F)cc([N+](=O)[O-])cc2C(=O)N[C@@H](CO)C(=O)N[C@@H](Cc2ccc(O)cc2)C(=O)N1	2.0	-4.3%	-4.0	3.3	-26.9
O=C(c1ccc(Cn2c(=S)[nH]c3cc4c(cc3c2=O)OCO4)cc1)N1CCN(c2ccccc2)CC1	-1.0	8.9%	6.8	x	x
CC(C)N(C(=S)NC1CCCCC1)c1ccccc1	-1.9	4.8%	1.4	7.6	x
Fc1ccccc1Nc1nc(NCc2ccco2)nc(N2CCOCC2)n1	7.4	2.0%	-5.2	0.3	x
COCCCNCCOc1ccccc1-c1ccccc1	-5.6	7.3%	-2.2	0.1	-4.8
C/C(=N/NS(=O)(=O)c1ccc(Cl)cc1)c1cccc(NC(=O)c2ccncc2)c1	x	x	-5.0	-2.0	x
c1ccc2cc(Cn3ccnc3)ccc2c1	x	x	3.0	1.8	x
O=C(Nc1cc2ccccc2oc1=O)C1CCCCC1	3.5	-5.1%	-1.3	1.1	-0.7
CCOC(=O)N1CCN(C(=O)c2ccc3nc4ccsc4c(=O)n3c2)CC1	5.8	x	-9.2	-2.2	-16.3	Arbovirus anti repeat=4.5
COC(=O)c1ccccc1NC(=O)Cn1ccnc1	5.6	-8.9%	-7.1	-2.6	-19.5
CCN(CC)S(=O)(=O)c1ccc(N2CCCC2)c(C(=O)OCC(=O)N2CCCC2)c1	5.4	2.9%	-11.1	0.5	x
O=S(=O)(c1ccc2c(c1)N(Cc1ccc(Cl)cc1)C1CCCN21)N1CCOCC1 (stereo not given)	2.1	6.8%	23.7	-2.7	-26.7
O=C(c1cccs1)N1CCN(S(=O)(=O)N2CCCCC2)CC1	4.3	1.0%	-17.7	x	-7.4
CCCN1C(=O)C2C(C(=O)Nc3cccc(OC)c3)C3C=CC2(O3)C1C(=O)NC1CCCCC1 (stereo not given)	4.8	-5.3%	-5.8	-0.5	-37.9
Cc1ccc2c(c1)C1CN(C)CCC1N2C(=O)Cn1nnc(-c2ccccc2F)n1 (stereo not given)	7.8	3.0%	-3.6	0.6	-44.4	Arbovirus anti repeat=-1.8
O=C(Nc1ccc(Cl)cc1C(=O)O)c1ccc2c(c1)C(=O)N(Cc1ccco1)C2=O	20.0	-6.8%	-4.9	0.4	-14.2
O=S(=O)(NCCSc1ccc(Cl)cc1)c1ccc2c(c1)OCCO2	-30.1	18.6%	12.8	8.5	-38.2
COc1nc(NC(C)(C)C)nc(Oc2ccc(=O)n(C)n2)n1	3.8	-1.0%	-2.2	-2.9	-43.7	Arbovirus anti repeat=-1.5
COc1ccc(C(=O)Nc2cc(C)nn2-c2cccc(F)c2)cc1	x	x	-3.8	1.6	x
COC(=O)c1sccc1NC(=O)c1ccccc1F	x	x	-2.1	-0.2	x
COC(=O)c1csc(S(=O)(=O)N2CCOCC2)c1OC	x	x	5.6	2.1	x
CCc1cccc2c(/C=N/NC(=O)c3cccc(S(=O)(=O)Nc4ccccc4Cl)c3)c[nH]c12	11.2	u	47.0	-0.8	-32.6
CN(Cc1ccco1)C(=O)Cn1ncc2c([nH]c3ccccc32)c1=O	x	x	5.0	-2.2	x
CCOC(=O)Cc1csc(NC(=S)NC(=O)c2ccccc2Br)n1	4.5	7.6%	-12.3	1.0	-33.8
C=C(C)Cn1c(SCC(=O)N/N=C/c2ccccc2OCC(=O)O)nnc1-c1ccc(Br)cc1	x	-5.6%	-0.2	-1.1	x
Cc1ccn2c(NC(C)(C)C)c(-c3cccs3)nc2c1	9.8	-16.3%	-5.3	-0.7	x
Cc1ccc(NC(=O)CSc2nnc(-c3ccc(S(=O)(=O)N4CCCC4)cc3)o2)cc1C	3.1	4.4%	1.5	x	2.1
Cc1cnc(C(=O)OCC(=O)c2c(N)n(CC(C)C)c(=O)n(C)c2=O)cn1	x	x	-3.8	0.2	x
O=C(CCNS(=O)(=O)c1ccc(Cl)cc1)OCC(=O)N1CCN(C(=O)c2ccco2)CC1	x	x	-10.2	-1.6	x
CCOCCCNC(=O)c1cc(C)nn1-c1ccccc1	1.0	-6.2%	4.4	-1.7	-41.9
COCCOC(=O)C1=C(C)OC(N)=C(C#N)C1c1ccc2c(c1)OCO2 (stereo not given)	-1.6	2.1%	-2.2	-0.6	-7.2	Arbovirus anti repeat=2.4
Cc1ccn2c(C(=O)NN=C3CCCCCCC3)c(C)nc2c1	-2.4	-0.7%	-7.6	-1.6	x

Looked up by compound from above:
SMILES	Arbovirus anti	Mtb growth	Mtb betalactam	RecA intein inh	YopH PTP inh	others
CCOCCCNC(=O)c1cc(C)nn1-c1ccccc1	1.0	-6.2%	4.4	-1.7	-41.9
O=C(CCNS(=O)(=O)c1ccc(Cl)cc1)OCC(=O)N1CCN(C(=O)c2ccco2)CC1	x	x	-10.2	-1.6	x
Cc1cnc(C(=O)OCC(=O)c2c(N)n(CC(C)C)c(=O)n(C)c2=O)cn1	x	x	-3.8	0.2	x
Cc1ccc(NC(=O)CSc2nnc(-c3ccc(S(=O)(=O)N4CCCC4)cc3)o2)cc1C	3.1	4.4%	1.5	x	2.1
Cc1ccn2c(C(=O)NN=C3CCCCCCC3)c(C)nc2c1	-2.4	-0.7%	-7.6	-1.6	x
